ClpP mod: qHTS Assay for Activators of ClpP; 1.9% of 340,000 active; ATP-dependent Clp protease proteolytic subunit (Bacillus subtilis (strain 168)), P80244; Potency, µM (titrated, usually from 57.5 µM), without a hit: top-dose activity change, negative = active; purified B. subtilis ClpP, FRET peptide cleavage, 20 min; active = well fitted falling curve with a large enough effect; inconclusive = small, poorly fitted or top-dose-only effect; inactive = no such curve, though single readings can be large or run the other way; further: potency means the concentration at half of the fitted maximal effect; the source files actives as falling curves though it sought activators and does not explain the sign; nearly all actives have a fitted effect of over 65% in size; many hits overshoot -100%
Target sequence (P80244 whole entry, looked up): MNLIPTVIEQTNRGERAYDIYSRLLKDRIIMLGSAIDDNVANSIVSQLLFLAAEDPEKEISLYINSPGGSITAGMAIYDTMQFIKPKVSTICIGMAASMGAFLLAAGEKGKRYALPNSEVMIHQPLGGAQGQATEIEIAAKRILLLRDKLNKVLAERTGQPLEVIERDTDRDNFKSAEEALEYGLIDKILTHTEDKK
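FRET quenching reversal measured ClpP activation: 10 microg/mL B. subtilis ClpP at pH 8 with the FRET-FV decapeptide, read at 430 nm after 320 nm excitation. The 20-min minus 0-min signal was scaled between DMSO/no-enzyme wells and ADEP (5.8 microM final).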
CtBP-E1A blk: blocks the CtBP interaction with E1A. AlphaScreen GST-E1A/His-CtBP binding, 1536-well; hits give low values; control for the full effect not named in the record. activity change, % (concentration not given with the values). 0.49% of 340,000 active. AID 651724; in the data active means activity change below about -65%; inconclusive means about -30% to -65%; inactive means above about -30%; further: on the % scale 0 is the no-effect control and ±100 the full control effect
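AlphaScreen with 125 nM GST-E1A and 125 nM His-CtBP (5X stocks) in Tris pH 8.0, 300 mM NaCl, BSA, Tween 20, TCEP. Compounds preincubated 2 h at 37 deg C, then glutathione donor/nickel acceptor beads added for 1 h at 37 deg C in dark.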
TRPV1 potentiator: potentiators of human vanilloid receptor 1 (TRPV1) | Q8NER1 | TRPV1-expressing cells, Fluo-8 calcium influx, capsaicin EC20 potentiation; host cell line not named in the record; control for the full effect not named in the record | 0.02% of 320,000 active | AID 540277 | potentiation, % at 8.33 µM; active means potentiation above 80%; inconclusive means 30% to 80%; inactive means below 30%; further: 0% is about no effect
Target sequence (Q8NER1 whole entry, looked up): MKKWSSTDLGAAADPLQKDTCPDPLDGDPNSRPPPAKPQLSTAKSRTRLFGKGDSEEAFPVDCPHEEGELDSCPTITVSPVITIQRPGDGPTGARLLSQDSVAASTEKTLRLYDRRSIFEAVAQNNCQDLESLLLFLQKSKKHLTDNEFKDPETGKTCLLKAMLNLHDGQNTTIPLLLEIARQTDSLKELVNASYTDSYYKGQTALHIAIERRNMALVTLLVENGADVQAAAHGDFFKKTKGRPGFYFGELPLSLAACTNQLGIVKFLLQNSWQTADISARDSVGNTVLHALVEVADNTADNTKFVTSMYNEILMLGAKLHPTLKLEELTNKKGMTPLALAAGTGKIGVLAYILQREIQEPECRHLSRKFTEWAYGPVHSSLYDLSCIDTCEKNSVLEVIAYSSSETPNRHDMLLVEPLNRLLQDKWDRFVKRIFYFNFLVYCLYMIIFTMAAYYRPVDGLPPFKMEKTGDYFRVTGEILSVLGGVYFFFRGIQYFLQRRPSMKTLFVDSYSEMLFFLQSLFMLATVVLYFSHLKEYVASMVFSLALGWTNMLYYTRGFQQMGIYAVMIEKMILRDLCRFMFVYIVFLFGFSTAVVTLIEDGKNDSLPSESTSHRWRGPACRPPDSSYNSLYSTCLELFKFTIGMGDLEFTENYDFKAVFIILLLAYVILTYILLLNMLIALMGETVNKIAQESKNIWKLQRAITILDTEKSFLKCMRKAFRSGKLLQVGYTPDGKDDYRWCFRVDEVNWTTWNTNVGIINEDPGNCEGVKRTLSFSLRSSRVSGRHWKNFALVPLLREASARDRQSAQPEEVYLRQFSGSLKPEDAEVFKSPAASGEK
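Fluo-8 calcium influx in TRPV1-expressing cells, kinetic read (ex 480/em 520 nm). Compound added and read 3 min for agonist activity, followed by capsaicin at EC20 final and 2 min further read for enhancement.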
Menin MLL FP FL: inhibitors of human menin-MLL interaction, wild-type MLL peptide; Fluorescence polarization, fluorescein-MLL peptide displacement from menin; FP activity change, % at 61.4 µM; 290,000 tested, under 10 active; AID 1766; inconclusive = falling polarisation curve, or a change in total fluorescence; inactive = total fluorescence flat and polarisation flat or rising; no compound was filed as active; the % refers to the polarisation; negative = inhibition;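 further: % of control where 0% means no effect; inhibitors lower the polarisation; unlabelled MLL peptide was the positive control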
gsp agonist: gsp mutant agonism; Potency, µM (doses to about 76.9 µM), without a hit: top-dose activation (cAMP increase), hits mostly activators; AID 624287; 0.13% of 340,000 active; gsp mutant cells, cAMP HTRF, 30 min; control for the full effect not named in the record; active = well fitted activation curve with a large enough effect; inconclusive = small, poorly fitted or top-dose-only effect, or another doubt; inactive = no such curve, though single readings can be large or run the other way; cell line not stated here;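 further: phosphodiesterase inhibitor Ro 20-1724 added with compounds to block cAMP breakdown; potency means the concentration at half of the fitted maximal effect; nearly all actives have a fitted effect of over 60% in size; about a fifth of the inactives were tested at one dose only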
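Cells stably selected in G418 were plated at 2000/well, grown 16-24 hr, then given compounds in DMSO with the PDE inhibitor […] (300 uM solution added) for 30 min at 37C; cAMP was read by HTRF.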
gsp antagonist: antagonists of gsp mutant (McCune-Albright syndrome) | gsp-mutant cells, cAMP HTRF, 30 min; control for the full effect not named in the record | Potency, µM (top dose mostly 76.9 µM), for the others: at the highest dose activity change, negative = inhibition, usual class: inhibitors | 0.4% of 340,000 active | AID 624288; active = falling curve of any shape with a large fitted effect; inconclusive = falling curve, mostly with a smaller effect; inactive = flat or rising curve; cell line not stated here;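 further: intracellular cAMP measured with PDE inhibitor Ro 20-1724 present during compound exposure; potency means the concentration at half of the fitted maximal effect; on the % scale 0 is the no-effect control and ±100 the full control effect; nearly all actives have a fitted effect of over 65% in size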
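Measurement of cellular cAMP by homogeneous time-resolved fluorescence following a 30 min compound exposure at 37C. The PDE inhibitor […] was present throughout; the assay buffer was DPBS with 0.05% BSA and 0.005% Tween 20.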
Sfp PPTase inh: inhibitors of Bacillus subtilis Sfp phosphopantetheinyl transferase. Q9F4F7. Biochemical Sfp PPTase activity, qHTS. Potency, µM, without a hit: max response, negative = inhibition, hits mostly inhibitors. 3.5% of 310,000 active; active means well fitted inhibition curve with a large enough effect; inconclusive means small, poorly fitted or top-dose-only effect, or another doubt; inactive means no such curve, though single readings can be large or run the other way;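 further: the enzyme is Sfp with the accession as filed and its product quenches rhodamine fluorescence; potency means the concentration at half of the fitted maximal effect; 0% = enzyme reaction without inhibitor and -100% = no enzyme wells; top concentration of the series not given in the record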
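Fluorescence-quenching assay: 15 nM Sfp-PPTase preincubated 15 min at room temperature with compound, then 5 uM rhodamine-CoA and 12.5 uM BHQ-2-labelled YbbR peptide added. Fluorescence (ex 525/em 598 nm) read at start and after 30 min; difference gives rate.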
Active calls of the source: *; u = inconclusive; x = no result given; [ ] = another dose, or the depositor's remark.

SMILES	ClpP mod	CtBP-E1A blk	TRPV1 potentiator	Menin MLL FP FL	gsp agonist	gsp antagonist	Sfp PPTase inh
COc1ccc2nc(N3C(=O)C(O)=C(C(=O)c4ccco4)C3c3ccccc3OC)sc2c1 (stereo not drawn)	0.5%	x	15.8	x	27.3%	1.4%	16.8%
O=C(COC(=O)c1cncc(Br)c1)NC1CCCCC1	x	5.6	-17.2	-2.8	u	2.1%	2.4%
Cn1nc(C(=O)NCCc2ccc(S(N)(=O)=O)cc2)c2ccccc2c1=O	1.1%	x	1.3	-2.2	12.8%	2.6%	18.9%
Cc1cc(Nc2cccc(Cl)c2Cl)n2ncnc2n1	x	14.1	7.0	0.5	-38.9%[inhibitor]	-3.7%	4.6%
Cc1[nH][nH]c(=O)c1C(c1cc([N+](=O)[O-])ccc1O)c1c(C)[nH][nH]c1=O	1.0%	-12.7	12.9	-5.7	u	15.6%	-16.7%
COC(=O)c1ccc(C(=O)OC)c(NS(=O)(=O)c2ccc(NC(C)=O)cc2)c1	-29.6%	1.8	-8.1	0.9	-12.6%	-7.7%	19.5%
Cc1ccc(NC(=S)N2CCN(c3ncccn3)CC2)c(C)c1	-1.8%	-6.3	-9.5	3.1	-12.7%	13.3%	32.7%[activator]
COC(=O)c1cccc(NC(=O)Nc2ccc(Cl)cc2)c1	x	5.3	4.8	-1.3	2.8%[15.4 µM]	2.0%	8.0%
O=C(Cn1ccccc1=O)c1ccc(Cl)cc1	0.4%	x	1.3	-2.2	-14.2%	3.9%	14.3%
CS(=O)(=O)NCCCCCCNS(C)(=O)=O	x	x	-22.3	2.2	-23.4%[15.4 µM]	16.6%	5.6%
ClC1(Cl)CC1CSc1nnc(-c2ccncc2)o1 (stereo not drawn)	-7.0%	x	-9.4	-0.1	-0.7%	-11.8%	0.7%
O=C(OCC1OC2OC3(CCCCC3)OC2C2OC3(CCCCC3)OC12)c1ccccc1 (stereo not drawn)	1.2%	-7.9	10.6	0.9	-21.4%	1.9%	29.7%
COCCN(C(=S)Nc1ccc(OC)cc1)C1CCN(C(C)=O)CC1	-0.2%	18.3	2.9	1.9	-0.3%	10.8%	4.8%
C/C(CC(=O)Nc1cc(Cl)ccc1C)=N\NC(=O)C(=O)N1CCCC1	x	-1.5	22.5	-10.3	27.5%	0.2%	16.2%
COc1ccc(S(=O)(=O)N2CCCCCC2)cc1C(=O)Nc1ccc(C)cn1	x	-4.9	-2.8	x	-6.9%[15.4 µM]	2.0%	x
CCOc1ccc(C(=S)N2CCCC2)c(OCC)c1	0.0%	-2.4	3.2	-4.1	6.7%[15.4 µM]	0.5%	50.1µM*
CCCn1c(=O)c(C(=O)NC(C)c2ccccc2)c(O)c2ccccc21 (stereo not drawn)	-3.1%	-4.6	-4.2	-2.5	-0.9%[15.4 µM]	7.7%	7.1%
O=C(c1ccccc1)c1ccccc1C(=O)N1CCCC1	-2.0%	-14.2	7.0	2.2	3.1%	4.1%	18.0%
Cc1cc(C)cc(N(CCC#N)C(=O)COC(=O)CNC(=O)c2sc3ccccc3c2Cl)c1	-7.8%	-0.5	15.0	x	17.3%	-17.9%	x
O=C(COC(=O)CNC(=O)c1ccccc1)Nc1nc(-c2ccccc2)cs1	0.0%	-24.6	2.8	8.0	-8.5%[15.4 µM]	-14.6%	15.7%
Cc1c(O)c2cccnc2[nH]c1=O	-6.7%	6.9	25.3	1.0	-9.4%	-20.4%	21.8%
COc1ccc2sc3ccccc3c(=O)c2c1	-3.4%	35.5	12.4	-5.5	u	-8.1%	0.7%
Cc1ccc(NC(=O)CN2C(=O)c3ccccc3C2=O)cc1	28.2µM*	13.2	-0.8	-1.6	-6.8%[15.4 µM]	-1.5%	-2.4%
O=C(OCCCOC(=O)c1ccc(O)cc1)c1ccc(O)cc1	-0.8%	-16.0	19.8	x	-10.3%	-8.6%	-0.7%
Cc1cc2oc(=O)cc(Cn3ccnc3)c2cc1O	-1.7%	x	2.6	-13.0	-16.2%	-3.1%	11.5%
COc1cc(NC(=O)c2ccco2)c(OC)cc1NC(=O)Nc1ccc(Cl)cc1	69.3%	-8.5	-7.7	0.9	-19.2%	5.2%	-2.2%
O=C(CSc1n[nH]c(-c2cccnc2)n1)OC1CCCCC1	x	8.1	-1.4	-8.7	-3.9%[15.4 µM]	-19.7%	7.0%
COc1cc(NC(=O)c2ccc3c(c2)OCO3)ccc1NC(=O)c1ccco1	u	8.0	8.2	2.8	-35.4%	0.7%	-2.6%
COc1ccc(CNC(=O)O[C@@H]2C[C@H]3C(=O)N(c4ccccc4)C(=O)[C@H]3[C@@]3(CN(S(=O)(=O)c4ccc(C)cc4)C[C@H]3C)[C@@H]2O)cc1OC	0.3%	-4.9	x	x	u	x	x
CC(=O)Nc1ccc(OS(=O)(=O)c2ccc(C(C)(C)C)cc2)cc1	x	x	-19.5	-0.1	x	x	4.7%
Cc1ccc(C(=O)NCCCC(=O)O)o1	-1.5%	3.2	4.0	-1.3	1.2%	0.5%	10.9%
Cc1onc(-c2ccccc2Cl)c1C(=O)NCCN1Cc2ccccc2C1=O	0.3%	7.3	24.4	3.8	14.1%	-12.2%	3.8%
Cc1cc(C)n2cc(CSc3nc4ccccc4[nH]3)nc2n1	-20.8%	2.1	9.9	0.2	u	2.6%	9.6%
COc1ccc(C2CC(c3ccc(Br)cc3)=NN2C(=S)Nc2ccccc2)cc1 (stereo not drawn)	x	-15.9	3.3	1.5	u	-1.2%	-8.3%
C/C(Sc1nnc(Cc2ccccc2)o1)=C(\O)c1ccccc1	x	0.0	x	x	-19.9%	11.2%	x
O=C(CNC(=O)c1cccs1)OCC(=O)c1ccc2ccccc2c1	u	6.9	-1.6	-0.5	-13.5%	-1.0%	11.3%
O=C(Nc1cccc(F)c1)C1CCN(c2nnnn2-c2ccccc2)CC1	-3.6%	-16.2	-6.0	-1.4	9.8%	u	0.0%
CC(C1CC1)N(Cc1ccccc1)C(=O)NC(=O)c1cccc(F)c1 (stereo not drawn)	x	6.4	11.7	-1.4	-10.4%	-3.1%	6.7%
CCOC(=O)CSc1nc(C)c(CC)c(C)c1C(N)=O	x	x	-0.1	0.9	5.4%[15.4 µM]	0.9%	12.7%
N/C(COc1cccc(C(F)(F)F)c1)=N\NC(=O)c1cccnc1Oc1ccccc1	-2.1%	-9.2	0.4	4.9	8.3%	-0.8%	7.4%
O=C(NC(=S)NNC(=O)c1ccco1)c1ccc(F)cc1	0.8%	x	0.6	-4.2	-1.2%	-9.9%	-11.9%
Cc1ccc(CNS(=O)(=O)c2c(C)[nH]c(C)c2C(=O)N2CCCCC2)cc1	-0.9%	-0.6	9.6	x	5.1%	0.1%	13.5%
COC(=O)c1ccccc1NC(=O)CCC(=O)N1CC(C)Oc2ccc(C)cc21 (stereo not drawn)	-8.9%	-0.6	u	0.0	-4.9%	u	-12.5%
Cn1c(O)c(C2=c3ccccc3=NC2=O)[nH]c1=S	-14.3%	-23.1	3.6	x	11.8%	-0.7%	-3.5%
Clc1cccc(/C=N/Nc2nnc(Cl)c3ccccc23)c1	1.3%	40.2	-3.6	0.5	-59.9%[inhibitor]	-9.0%	-1.2%
COC(C(=O)Nc1ccnn1C1CCN(Cc2cnn(C(C)C)c2)CC1)c1ccccc1 (stereo not drawn)	2.0%	4.1	-8.9	x	19.0%	9.4%	18.7%
CCOc1ccc(N2CC(C(=O)Nc3ccc(S(=O)(=O)N4CCCC4)cc3)CC2=O)cc1 (stereo not drawn)	x	-7.7	6.6	-1.8	-12.0%[15.4 µM]	-4.1%	-29.0%
Cc1oc(-c2cccc(Cl)c2)nc1CN1CCC(C(=O)NCCCN2CCCC2=O)CC1	-1.1%	1.9	-12.2	2.8	10.2%	4.5%	17.2%
COc1ccc2c(c1)c1ncn(Cc3ccc(F)cc3)c(=O)c1n2C	-4.5%	-1.8	0.8	6.4	-3.5%[15.4 µM]	21.5%	1.4%
CS(=O)(=O)Nc1ccc(C2=NN(S(C)(=O)=O)C(c3ccc4nccnc4c3)C2)cc1 (stereo not drawn)	-0.6%	-8.9	1.8	-5.7	0.9%	-8.2%	7.8%
(list continues)
SMILES	ClpP mod	CtBP-E1A blk	TRPV1 potentiator	Menin MLL FP FL	gsp agonist	gsp antagonist	Sfp PPTase inh
CC(=O)N1CCc2cc(S(=O)(=O)NCCC(=O)N3CCN(c4ccccn4)CC3)ccc21	-6.6%	-3.7	3.7	0.1	4.0%	-7.1%	11.6%
CCOC(=O)COc1ccc2c(c1)C(=O)CC1(CCN(C(C)=O)CC1)O2	28.2µM*	6.9	-2.7	1.2	25.6%	-7.1%	13.6%
CC(C)c1csc(CN2CCC(N3CCC(C(=O)NCC4CCCO4)CC3)CC2)n1 (stereo not drawn)	0.5%	-0.6	11.8	-7.3	-21.5%	6.5%	8.6%
COc1ccc(/C=N/n2c(C)nnc2C)c(OC)c1	0.7%	-2.7	11.4	-0.1	u	7.6%	0.2%
O=C(Cc1ccccc1Cl)N1CCN(c2ncccn2)CC1	x	3.2	-4.2	2.5	-4.2%[15.4 µM]	x	10.8%
CCOC(=O)N1CCC(NC(=O)C2CCN(C(=O)c3cc4oc(C)cc4n3Cc3c(F)cccc3Cl)CC2)CC1	-5.0%	x	-1.1	-3.8	8.5%	-19.5%	20µM*
C/C(=N\NC(N)=S)C1(C)CCCCC1	-1.4%	5.8	-1.8	1.5	u	12.7%	u
COc1ccc2cc(/C=N/NC(=O)CN(c3ccccc3)S(=O)(=O)c3ccccc3)c(Cl)nc2c1	x	x	12.3	10.4	x	x	9.8%
CCCS(=O)(=O)N1CCC(C(=O)N2CCc3ccccc3C2)CC1	-1.2%	12.4	-11.2	5.6	7.1%	-12.3%	4.5%

Source: PubChem (National Center for Advancing Translational Sciences (NCATS))

Outcome played no part in choosing rows; overall some 5.3% were active at least once.
